Screens deposited in PubChem BioAssay by National Center for Advancing Translational Sciences (NCATS).
CtBP-E1A blk: blocks the CtBP interaction with E1A. AlphaScreen GST-E1A/His-CtBP binding, 1536-well; active compounds read low; control for the full effect not named in the record. activity change, % (test concentration not listed). 340,000 compounds, 0.49% hits; in the data active means activity change below about -65%; inconclusive means about -30% to -65%; inactive means above about -30%; also: % is scaled to controls: 0 for no effect and ±100 for the full control effect
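AlphaScreen with 125 nM GST-E1A and 125 nM His-CtBP (5X stocks) in Tris pH 8.0, 300 mM NaCl, BSA, Tween 20, TCEP. Compounds preincubated 2 h at 37 deg C, then glutathione donor/nickel acceptor beads added for 1 h at 37 deg C in dark.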
TRPML1 inh: human mucolipin-1 channel inhibition | TRPML1-inducible cells, Ca2+ dye fluorescence, FDSS; active compounds read low; inhibition of EC80 agonist-evoked calcium signal | activity change, negative = inhibition, % (concentration not given with the values) | 390,000 compounds, 0.02% hits | AID 624415; in the data active means activity change below about -50%; inconclusive means about -30% to -50%; inactive means above about -30%;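 also: stimulus is agonist 54-4 at its EC80 concentration; % is scaled to controls: 0 for no effect and ±100 for the full control effect; the text of the record puts the active cut at -80%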
Target sequence (Q9GZU1 whole entry, looked up): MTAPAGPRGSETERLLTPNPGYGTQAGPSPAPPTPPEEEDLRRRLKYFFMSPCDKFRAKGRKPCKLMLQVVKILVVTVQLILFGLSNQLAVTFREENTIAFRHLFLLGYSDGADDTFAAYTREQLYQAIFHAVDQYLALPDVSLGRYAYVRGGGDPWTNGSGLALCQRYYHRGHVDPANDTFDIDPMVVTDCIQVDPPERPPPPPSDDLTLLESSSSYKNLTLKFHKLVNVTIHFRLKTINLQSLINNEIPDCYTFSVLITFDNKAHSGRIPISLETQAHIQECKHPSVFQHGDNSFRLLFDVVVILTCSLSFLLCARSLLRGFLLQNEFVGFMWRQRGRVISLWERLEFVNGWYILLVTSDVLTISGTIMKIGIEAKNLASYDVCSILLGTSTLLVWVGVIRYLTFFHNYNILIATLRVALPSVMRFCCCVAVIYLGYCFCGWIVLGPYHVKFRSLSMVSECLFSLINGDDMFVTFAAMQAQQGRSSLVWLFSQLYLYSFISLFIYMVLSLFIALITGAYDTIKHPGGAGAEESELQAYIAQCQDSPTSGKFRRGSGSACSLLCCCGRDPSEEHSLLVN
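Tet-induced TRPML1-DL cells loaded with Ca8 no-wash calcium dye were read kinetically on FDSS. Compound addition was followed by EC80 agonist 54-4 (4 uM final); inhibition was read over 110 s.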
TRPV1 PAM: human TRPV1 potentiation | TRPV1-expressing cells, Fluo-8 calcium influx, capsaicin EC20 potentiation; host cell line not named in the record; control for the full effect not named in the record | potentiation, % at 8.33 µM | 320,000 compounds, 0.02% hits; active means potentiation above 80%; inconclusive means 30% to 80%; inactive means below 30%; also: 0% is about no effect
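TRPV1-expressing cells were cultured overnight at 35.5C and loaded with Fluo-8 calcium dye for 40 to 90 min at room temperature. After a 10 s baseline, compound was added and calcium influx was read kinetically for 3 min (ex 480/em 520 nm).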
Six1-Eya2 blk: inhibitors of human Six1/Eya2 interaction; AlphaScreen GST-Six1/His-Eya2 binding, biochemical; active compounds read low; control for the full effect not named in the record; AID 651725; Q15475+O00167; activity change, % (concentration not given with the values); 360,000 compounds, 0.56% hits; in the data active = activity change below about -65%; inconclusive = about -30% to -65%; inactive = above about -30%; also: % is scaled to controls: 0 for no effect and ±100 for the full control effect
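Homogeneous AlphaScreen proximity assay pairing GST-Six1 with His-tagged Eya2 (added as 5X mix: 250 nM and 500 nM) in 50 mM Tris pH 8.0, 300 mM NaCl, 1 mM TCEP. Glutathione donor and nickel acceptor beads; 1 h, 37 °C, dark.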
TRPML1 agonist: activates the human TRPML1 channel | Q9GZU1 | TRPML1-expressing cells, Ca2+ dye fluorescence, FDSS; host cell line not named in the record; reference of the full effect not given here | activation, % (test concentration not listed) | 410,000 compounds, 0.12% hits; in the data active = activation above about 50%; inconclusive = about 30% to 50%; inactive = below about 30%; also: 0% is about no effect; the text of the record puts the active cut at 80%
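Tetracycline-induced TRPML1-DL cells are seeded and incubated overnight before loading with a no-wash Ca2+ dye and quencher. Agonist activity is taken from the 110 s fluorescence read following compound pin-transfer on an FDSS, before EC80 54-4 challenge.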
D2 PAM: positive allosteric modulators of human D2 dopamine receptor; potentiation, % (concentration not given with the values); 360,000 compounds, 0.23% hits; DiscoveRx D2 beta-arrestin cells, luminescence, 90 min; 100% = 57 uM dopamine signal; AID 624464; active = potentiation of 50% or more; inconclusive = 30% to 50%; inactive = 30% or less;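 also: tested on top of an EC20 dose of dopamine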
Target sequence (P14416 whole entry, looked up): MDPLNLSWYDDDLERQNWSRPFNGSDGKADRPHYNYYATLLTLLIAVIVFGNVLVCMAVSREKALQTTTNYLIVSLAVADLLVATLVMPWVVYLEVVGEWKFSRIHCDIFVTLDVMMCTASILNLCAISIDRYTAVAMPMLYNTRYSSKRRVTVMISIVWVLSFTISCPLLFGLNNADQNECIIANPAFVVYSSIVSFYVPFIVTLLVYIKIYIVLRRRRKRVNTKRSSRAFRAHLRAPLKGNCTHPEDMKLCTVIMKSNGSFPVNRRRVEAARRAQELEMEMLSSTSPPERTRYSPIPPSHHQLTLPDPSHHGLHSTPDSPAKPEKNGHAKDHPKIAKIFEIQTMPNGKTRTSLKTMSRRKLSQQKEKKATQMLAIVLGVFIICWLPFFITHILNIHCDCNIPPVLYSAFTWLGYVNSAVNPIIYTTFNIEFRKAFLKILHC
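PathHunter D2 cells, attached overnight at 37 deg C, received compound in DMSO plus dopamine at EC20 (50 nM final) for 90 min at 37 deg C. Beta-arrestin recruitment was read as luminescence after 1 h with detection reagent at ambient temperature.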
The depositor's hits bear a star; ? = inconclusive; nt = not tested or not shown; & = joins results of further samples.

SMILES	CtBP-E1A blk	TRPML1 inh	TRPV1 PAM	Six1-Eya2 blk	TRPML1 agonist	D2 PAM
COC(=O)c1ccc2c(c1)C(NC(C)=O)CCc1cc(OC)c(OC)c(OC)c1-2 (configuration not stated)	7	-3	nt	3	0.7	-12
O=C(Cc1coc2ccc3ccccc3c12)N1CCCC1	8	17	-19	3	-0.4	-6
CCOC(=O)c1cn(CC)c2ccc(Br)cc2c1=O	-2	-6	7	-5	0.6	-12
Cc1ccc(/C=N/NC(=O)Cc2c(F)cccc2Cl)s1	-5	5	10	-3	-0.5	-9
Cc1ccccc1C(=O)NC(=S)NC1CCS(=O)(=O)C1 (configuration not stated)	-3	8	1	0	-0.4	-10
CCC(=O)Nc1ccc(S(=O)(=O)N2CCC(c3nc4ccccc4[nH]3)CC2)cc1	-2	8	1	-13	-0.4	-14
Cc1noc(/C=C/N(C)C)c1S(=O)(=O)N1CCCC(C(=O)NCc2ccco2)C1 (configuration not stated)	1	1	?	-1	0.3	-8
CC(C)Cc1cc(-c2ccco2)c(C#N)c(N)n1	3	-1	-8	4	0.3	0
O=C(CSc1nccn1Cc1ccccc1)NC1CCCC1	13	-13&19	-9	3	0.2&-0.2	-1
O=[N+]([O-])c1ccccc1CCc1ccccc1[N+](=O)[O-]	-23	5	nt	-24	-0.4	-3
COc1ccc([C@H]2C[C@H](n3cc(-c4ccc(F)cc4)nn3)[C@@H](O)CN2CC2CCCCC2)cc1	3	62	nt	-8	0.6	-1
Cc1ccc(NC(=O)CCCc2c[nH]c3ccccc23)nc1	-7	-2	0	-8	0.0	-13
CC1SC(c2ccccc2Cl)NC1=O (configuration not stated)	-1	19	-8	8	-0.6	2
O=C(c1ccco1)N1CCN(C(=O)c2cc(Cl)nc3ccccc23)CC1	-3	2	4	-7	-0.3	16
CCS(=O)(=O)n1nc(-c2cccnc2)nc1NCc1ccc(F)cc1	4	-8	2	3	-0.5	-1
Cc1ccc(-n2c(=O)c3sccc3n(CC(=O)NCC3CCCO3)c2=O)cc1F (configuration not stated)	2	24	-1	2	2.4	1
CCCNC(=O)C1(C)CCN(Cc2cc3ccccc3o2)C1 (configuration not stated)	2	nt	nt	0	-0.9	-4
CC1Cc2cc(/C(O)=C3/C(=O)C(=O)N(CCN4CCOCC4)C3c3ccc(N(C)C)cc3)ccc2O1 (configuration not stated)	nt	-8	-6	2	1.7	-5
Cc1cc(NC(=O)NC(=O)c2ccccc2F)no1	-3	9	1	0	-0.1	-3
O=C(Nc1ccccc1N1CCCCC1)c1ccc(F)cc1	15	-4	5	20	1.1	1
CC(C(=O)NC(=O)NC1CCCCC1)N1CCN(c2ccccn2)CC1 (configuration not stated)	-1	-5	28	-3	-0.6	-3
CCC1CCCCN1CCNC(=O)CCS(=O)(=O)c1ccc(Br)cc1 (configuration not stated)	5	8	29	1	0.3	-24
Cc1nn(C)cc1CNC(=O)C1(C)CC1(Cl)Cl (configuration not stated)	8	9	24	-20	0.4	-10
O=C(Nc1cccc(Oc2ccc3c(c2)C(=O)NC3=O)c1)c1cccs1	1	1	-2	1	2.9	-15
COC(CNC(=O)c1ccc2c3c(onc13)-c1ccccc1C2=O)OC	-30	3	-2	?	1.4	-18

Next section
SMILES	CtBP-E1A blk	TRPML1 inh	TRPV1 PAM	Six1-Eya2 blk	TRPML1 agonist	D2 PAM
O=S(=O)(N[C@H]1C[C@@H](NS(=O)(=O)OCC(Cl)(Cl)Cl)C2CCCCC21)OCC(Cl)(Cl)Cl (some centres not stated)	0	-9	-3	3	-0.6	0
CC(/C=C1\SC(=S)N(C(C(=O)O)c2ccccc2)C1=O)=C\c1ccccc1 (configuration not stated)	-5	-4	12	2	0.3	-5
N#Cc1cccc(C(c2nnnn2CCc2ccccc2)N2CCN(C3CCCCC3)CC2)c1 (configuration not stated)	9	-1	-11	5	-0.4	4
COc1ccc(F)cc1C(=O)C1CCCN(Cc2c[nH]c3ccccc23)C1 (configuration not stated)	-7	15	16	-4	0.2	-2
NNC(=O)CN1CCN(c2ncc(C(F)(F)F)cc2Cl)CC1	5	-7	12	3	0.3	-4
COc1ccc(OC)c(/C=N/NC(=O)CC(=O)NC2CCCCC2)c1	-2	14	-4	-2	-0.4	-12
CCSC1=C(C#N)C(c2ccccc2Cl)CC(=O)N1 (configuration not stated)	1	5	21	-2	0.4	12
CCCn1nnc(NC(=O)c2ccc3c(c2)OCO3)n1	-5	-6	9	9	-0.5	0
Cc1nc(N)sc1C(=O)N/N=C/c1ccco1	-6	9	-1	-3	0.4	11
CC(=O)NCC(=O)OCC(=O)c1ccc(Br)cc1	-2	-10	-2	0	-0.1	-7
O=C(COC(=O)/C=C/c1cccs1)Nc1ccc(F)cc1	nt	4	-22	1	-0.1	-6
Cc1cccc(N(Cc2ccccc2)C(=O)CCl)c1	5	1	-3	-6	1.2	-12
CCOC(=O)C(=O)NCc1ccc(/C=C2/N=C(C)C(C(=O)OCC)=C2O)o1	0	-10	6	-21	1.2	3
CCC(=O)N(c1nnc(SCC(=O)c2ccc[nH]2)s1)C1CC1	5	18	nt	-8	-0.1	-7
COc1ccc(OC)c(C(=O)COC(=O)c2cc(C)oc2C)c1	-2	-7	-2	0	2.3	-8
O=c1cnc2ccccc2n1Cc1ccc(Br)cc1	8	6	-22	12	-0.3	-8
CCOC(=S)SCC(=O)Nc1nc(-c2ccccc2)cs1	-2	2	-4	-10	-0.4	-8
CCOC(=O)N1CCN(c2c(NCCc3ccc(OC)c(OC)c3)c(=O)c2=O)CC1	4	6	10	-4	-0.4	-3
Cc1ccc(S(=O)(=O)/N=C2\SC(CC(=O)Nc3ccc(F)cc3)C(=O)N2c2ccccc2)cc1 (configuration not stated)	2	22	7	-2	-0.1	2
CCOc1ccccc1CN1CCNC(=O)C1CC(=O)N(C)CCC1CCOCC1 (configuration not stated)	5	-5	3	0	-0.4	-7
CCOC(=O)c1cccc(NC(=O)CNC(=O)C2CCCCC2)c1	1	3	-2	-6	-0.4	1
COC(=O)c1ccc(NC(=O)CC2C(=O)N(C)C(=S)N2Cc2ccc(S(N)(=O)=O)cc2)cc1 (configuration not stated)	9	-8	-4	5	-0.8	-5
CCN(C(=O)COC(=O)c1cc2c(s1)CCCCC2)C1CCS(=O)(=O)C1 (configuration not stated)	12	7	7	1	0.4	-4
O=C(C1CC(c2ccc(F)cc2)=NO1)N1CCCc2ccccc21 (configuration not stated)	3	-1	-11	-1	3.2	-10
NC(=O)c1ccc(-c2nnn(CC(=O)Nc3cccc(S(=O)(=O)N4CCCC4)c3)n2)cc1	nt	4	-1	3	0.0	-27

Of the compounds above, these contain an aryl methoxy group:
SMILES	CtBP-E1A blk	TRPML1 inh	TRPV1 PAM	Six1-Eya2 blk	TRPML1 agonist	D2 PAM
COC(=O)c1ccc2c(c1)C(NC(C)=O)CCc1cc(OC)c(OC)c(OC)c1-2 (configuration not stated)	7	-3	nt	3	0.7	-12
COc1ccc([C@H]2C[C@H](n3cc(-c4ccc(F)cc4)nn3)[C@@H](O)CN2CC2CCCCC2)cc1	3	62	nt	-8	0.6	-1
COc1ccc(F)cc1C(=O)C1CCCN(Cc2c[nH]c3ccccc23)C1 (configuration not stated)	-7	15	16	-4	0.2	-2
COc1ccc(OC)c(/C=N/NC(=O)CC(=O)NC2CCCCC2)c1	-2	14	-4	-2	-0.4	-12
COc1ccc(OC)c(C(=O)COC(=O)c2cc(C)oc2C)c1	-2	-7	-2	0	2.3	-8
CCOC(=O)N1CCN(c2c(NCCc3ccc(OC)c(OC)c3)c(=O)c2=O)CC1	4	6	10	-4	-0.4	-3

Going on with the list:
SMILES	CtBP-E1A blk	TRPML1 inh	TRPV1 PAM	Six1-Eya2 blk	TRPML1 agonist	D2 PAM
O=C1CSc2ccc(S(=O)(=O)CCC(=O)NC3CCCCC3)cc2N1	nt	14	1	9	0.5	-5
O=C(NC1CCOC1=O)c1ccccc1 (configuration not stated)	-1	0	nt	3	-0.7	-1
N=c1n(CCO)c2ccccc2n1Cc1ccc(Cl)cc1	0	31	20	-4	1.1	-9
C=CCSc1nc2sc3c(c2c(=O)[nH]1)CCC3	nt	21	19	1	-0.7	-3
CN(C(=O)COC(=O)CNC(=O)c1ccc(C(C)(C)C)cc1)c1c(N)n(Cc2ccccc2)c(=O)[nH]c1=O	-20	-10	10	2	-0.5	-6
CC(=O)C[C@H]1c2cc(C(F)(F)F)ccc2S(=O)(=O)N1Cc1ccccc1	8	-18	nt	4	-0.3&-0.4	2
COCCN1C(=O)COc2ccccc2C1C(=O)Nc1ccc2c(c1)OCCO2 (configuration not stated)	5	nt	nt	6	-0.7	nt
OC(c1ccccc1)(c1nc(-c2cc3ccccc3o2)cs1)C(F)(F)F (configuration not stated)	0	nt	nt	4	1.5	-4
O=C(NCCCc1ccccc1)c1cccc(NC(=O)c2ccccc2)c1	-2	-6	nt	0	-0.4	nt
O=C1C=C(c2ccc(F)cc2OCc2ccccc2)C[C@@H](c2ccc3c(c2)OCO3)C1	3	-3	-10	1	0.3	-4
CN(C)c1ccc(CNCCC2(O)CCOC(C)(C)C2)cc1 (configuration not stated)	2	7	1	4	0.1	0
CC1C/C(=N\Nc2ccc(S(N)(=O)=O)cc2[N+](=O)[O-])CC(C)(C)C1 (configuration not stated)	-29	4	-3	-28	0.6	-7
CCCNC(=O)C1(C)CCCN(Cc2ccccc2C#N)C1 (configuration not stated)	0	nt	nt	32	-1.1	0
O=c1[nH]cnc2c1ncn2C1OC(CO)CC1F (configuration not stated)	12	nt	nt	6	0.0	-2
COc1ccc(NC(=O)CCNS(=O)(=O)c2ccc3[nH]c(=O)oc3c2)cc1Cl	-8	5	-2	-5	-0.4	-7
COCCNC(=O)c1ccc2c3n(nc2c1)-c1ccc(C)cc1CO3	-1	-7	-14	0	1.2	6
O=C(Cc1n[nH]c(=O)c2ccccc12)Nc1ccc(-c2nnc3n2CCCCC3)cc1	-4	-5	-19	6	1.1	8
COc1ccc2[nH]c(C)c(-c3csc(N)n3)c2c1	-15	-8	1	-18	0.1	-1
Cc1csc(SCC(=O)Nc2cccc(S(=O)(=O)N3CCOCC3)c2)n1	6	-3	-1	-6	0.2	-2
CC(=O)Nc1cc2c(c(Cl)c1Cl)-c1ccccc1C2=O	-7	-7	nt	-2	0.7	-8
CCCCN(C(=O)c1ccc2c(c1)OCCO2)c1c(N)n(CCCC)c(=O)[nH]c1=O	2	-5	-7	0	-0.5	14
CNC(=O)CNC(=O)Nc1ccc(C)cc1	nt	9	4	10	0.4	-8
C[N+](C)(C)CCOP(=O)([O-])OC[C@H](O)CO	0	-2	-8	-4	-0.5	-14
CSc1nc(-c2ccco2)nn1S(C)(=O)=O	2	11	0	4	0.3	-15
O=C(NOC(=O)c1ccccc1Cl)c1cccs1	5	-7	2	1	0.1	-2

Full records, looked up by structure:
CCCCN(C(=O)c1ccc2c(c1)OCCO2)c1c(N)n(CCCC)c(=O)[nH]c1=O across the screens: CtBP-E1A blk: 2; TRPML1 inh: -5; TRPV1 PAM: -7; Six1-Eya2 blk: 0; TRPML1 agonist: -0.5; D2 PAM: 14
CN(C)c1ccc(CNCCC2(O)CCOC(C)(C)C2)cc1 (configuration not stated) across the screens: CtBP-E1A blk: 2; TRPML1 inh: 7; TRPV1 PAM: 1; Six1-Eya2 blk: 4; TRPML1 agonist: 0.1; D2 PAM: 0
